B2AR ag: beta2AR agonists driving receptor internalization, primary screen, cell-based, FAP fluorogen, flow cytometry. Am2.2-beta2AR cells; reference of the scale not given here. Beta-2 adrenergic receptor (Homo sapiens), P07550. hit rate 0.43% among 340,000. response, % (concentration not given with the values);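 active = response above a set limit, near 3 SD of response in nonfluorescent compounds, cut at about 42% in these data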;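 note: stock transfer was 100 nL into about 11 µL; a reference agonist was the positive control; negative values mostly stem from fluorescent compounds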
Target sequence (P07550 whole entry, looked up): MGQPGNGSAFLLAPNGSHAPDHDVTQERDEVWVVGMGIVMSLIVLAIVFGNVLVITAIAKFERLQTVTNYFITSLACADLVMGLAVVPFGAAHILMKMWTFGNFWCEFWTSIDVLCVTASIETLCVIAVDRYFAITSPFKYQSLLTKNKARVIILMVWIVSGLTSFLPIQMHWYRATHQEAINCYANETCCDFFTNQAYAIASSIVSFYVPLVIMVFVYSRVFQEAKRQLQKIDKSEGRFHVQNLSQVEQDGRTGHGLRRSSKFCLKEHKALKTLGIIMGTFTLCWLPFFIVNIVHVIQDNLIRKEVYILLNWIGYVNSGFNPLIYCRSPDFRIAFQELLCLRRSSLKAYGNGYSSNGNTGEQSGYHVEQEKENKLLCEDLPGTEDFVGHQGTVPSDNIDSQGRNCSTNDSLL
E coli growth: E. coli growth inhibition, primary screen, OD600; Escherichia coli growth, 23 h; hits give low values; OD600 absorbance (concentration not given with the values); hit rate 0.21% among 330,000;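 active = OD600 absorbance below the run mean of sample wells minus 3.6 SD, in any replicate, cut at about 0.56 in these data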;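 note: stock transfer was 300 nL into about 60 µL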
UCH37 inh: inhibitors of human UCH37 deubiquitinase, primary screen, biochemical, Ub-AMC cleavage, fluorescence; hit rate 0.33% among 330,000; purified proteasome/UCH37; AID 588478, 2011; inhibition, % (concentration not given with the values);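 active = mean of two replicates above 20%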;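 note: 0% = compound-free wells with enzyme and 100% = wells lacking proteasome; stock transfer was 100 nL into about 20 µL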
Target sequence (Q9Y5K5 whole entry, looked up): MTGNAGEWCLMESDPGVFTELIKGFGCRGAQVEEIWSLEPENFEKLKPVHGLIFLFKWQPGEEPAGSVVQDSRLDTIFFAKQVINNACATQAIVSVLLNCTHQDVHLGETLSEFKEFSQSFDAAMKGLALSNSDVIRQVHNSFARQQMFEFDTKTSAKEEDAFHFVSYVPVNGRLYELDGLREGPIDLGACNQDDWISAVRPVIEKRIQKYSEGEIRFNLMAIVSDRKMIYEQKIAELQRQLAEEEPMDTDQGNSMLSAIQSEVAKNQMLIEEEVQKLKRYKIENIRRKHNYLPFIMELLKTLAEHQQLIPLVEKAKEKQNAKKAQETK
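Reagent: Ub-AMC substrate; assay system: Proteasome-associated human UCH37 deubiquitinase; controls: no-proteasome and no-compound wells; read-out: % inhibition of Ub-AMC cleavage fluorescence; timing: 30 min preincubation with enzyme, 25 min cleavage at room temperature; signal: AMC fluorescence from Ub-AMC cleavage, excitation 355 nm, emission 460 nm; buffer or medium: Tris-HCl pH 7.4 plus ovalbumin, ATP-MgCl2, DTT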
HNF4A DNA FP: change in binding of human HNF4A to DNA, primary screen, biochemical, fluorescence polarization, FITC-DNA; activity change, % at 10 µM; hit rate 0.3% among 360,000; Hepatocyte nuclear factor 4-alpha (Homo sapiens), P41235; 1 h; AID 1224865, 2016; in the data active = activity change above about 30%, passing the limit was not always enough;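 note: controls were the assay level and a saturating level of protein; the project sought stronger binding though the title names inhibitors; some compounds called inactive have numbers as strong as hits; positive values seem to mean higher polarization but the record does not say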
Bfl-1 A1 inh: caspase 3/7 activation in MEF A1-2A-BIM cells, primary screen, A1 inhibitor project, cell-based, luminescence, HTS; Caspase-Glo 3/7 luminescence, 3 h; percent of clofoctol response, vehicle zero; caspase activation, % (no concentration beside the values); hit rate 0.066% among 330,000; AID 2462, 2010;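 active = over half of replicate activation scores above 10%, or exactly half above 10 with the replicate mean above 10; inconclusive = replicate mean below 10 yet half the replicates above 10; inactive = over half of replicates below 10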;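 note: wells of about 30 µL received 50 nL stock; many hits fall short of the cut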
Vif A3G: inhibitors of Vif binding to APOBEC3G peptide, primary screen, biochemical, TR-FRET, GST-Vif 1-94, biotin-A3G peptide, dose response retest (AID 1117319) | Virion infectivity factor (Human immunodeficiency virus type 1 group M subtype B (isolate … | TR-FRET GST-Vif / biotin-A3G peptide binding; higher % means a stronger effect; test concentration not given here; strong numbers were not always called active | one-dose inhibition, %; IC50 in µM for titrated hits | hit rate 0.57% among 260,000;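 active = above the screen mean plus three standard deviations and confirmed in dose response; inconclusive = results disagree or hit not tested in dose response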;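 note: Vif residues 1-94 fused to GST binding biotinylated APOBEC3G peptide 110-148; 0% = full assay without inhibitor and 100% = GST in place of GST-Vif; retest series ran down from 100 µM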
LANA-H2B inh: blockers of LANA interaction with H2A/H2B – biochemical, FP readout, HTS, primary screen. cell-free LANA-H2A/H2B peptide, fluorescence polarization. inhibition, % (concentration not given with the values). AID 2629, 2010. hit rate 0.6% among 320,000. Protein LANA1 (Human herpesvirus 8 type P (isolate GK18)), Q9QR71; in the data active = inhibition mostly above about 10%, no sharp cut-off; inactive = mostly below about 6.7%;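 note: stock transfer was 7.5 nL into about 10 µL; 0% = median of vehicle wells and 100% = median of positive control wells; one replicate is shown; the record names a cut of 25% in any replicate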
An asterisk follows results filed as active; i = inactive; ? = inconclusive; · = not tested or not shown; & = joins results of further samples. Random draw from the library. About 2.1% of those tested had a hit in this group.

SMILES	B2AR ag	E coli growth	UCH37 inh	HNF4A DNA FP	Bfl-1 A1 inh	Vif A3G	LANA-H2B inh
CCCc1n(CC(O)COCc2ccccc2)c2ccccc2[n+]1C (stereo not drawn)	7	0.63	-0.6	-1.6	0.3	·	2.7
O=C(CSc1nc(-c2ccccc2)cc(C(F)(F)F)n1)NCc1ccco1	-15	0.66	4.5	1.1	-0.2	6%	-5.5
CC1(C)N=C(SCC(=O)Nc2ccc(Cl)cc2Cl)C(c2ccccc2)=N1	-6	0.64	5.1	-0.7	-0.2	5%	-3.8
C#CCSc1nc2sc3c(c2c(=O)n1C)CCC3	3	0.65	2.0	-12	-0.6	24%	-3.1
Cc1cc(Nc2ccccc2)nc2cc(O)ccc12	2	0.7	-21	0.3	-1.0	·	-3.7
CC(C)c1ccc2[nH]c3nc(SCC(=O)NC4CC4)nnc3c2c1	0	0.64	-23	5.7	-0.7	·	0.0
CCC(=O)N(Cc1cc2ccccc2[nH]c1=O)c1ccccc1OC	-14	0.66	-2.3	-1.8	0.5	·	3.3
CC1CCN(CCn2c(=S)[nH]c3ccccc3c2=O)CC1	14	0.7	3.0	5.5	0.5	·	6.5
Cc1ccccc1NC(=O)CC1SC(=O)N(c2ccccc2)C1=O (stereo not drawn)	3	0.66	3.8	2.9	-1.4	5%	4.1
c1ccc(-c2nnc(N3CCN(c4ccccc4)CC3)nc2-c2ccccc2)cc1	12	0.72	5.2	3.2	-0.1	-14%	0.0
O=C(NC1=NCCS1)c1ccccc1Cl	5	0.69	5.1	-0.8	-0.3	0%	-0.4
CC12CCC(=O)N1C(C(=O)NCCN1C(=O)S/C(=C\c3ccccc3Cl)C1=O)CS2 (stereo not drawn)	2	0.67	4.4	4.7	0.7	-1%	-23
Cc1c(C(=O)Nc2cc(S(=O)(=O)N3CCOCC3)ccc2N2CCN(C)CC2)oc2ccccc12	1	0.66	3.1	0.2	0.8	22%	7.8
Cc1nnc(SCC(=O)N(C)C2CCCCC2)s1	1	0.65	4.2	-3.8	0.8	·	-2.5
O=S1(=O)C[C@@H](O)[C@@H](Nc2ccc(Cl)cc2)C1	2	0.66	-1.2	3.0	-0.4	11%	2.4
N#Cc1c(-c2ccccc2)cc(C2CC2)nc1SCC(=O)O	8	0.66	1.6	8.5	1.1	·	2.2
CN(C)CCOC(C1CCCCC1)C1CCCCC1	17	0.68	1.3	7.7	0.3	-3%	-1.0
Cc1c(N=C2SCC(=O)N2/N=C/c2ccccc2)c(=O)n(-c2ccccc2)n1C	-8	·	·	-3.6	0.8	·	0.0
Cc1ccc(NC(=O)C2CCCN(c3ncnc4c3nc3n4CCCCC3)C2)cc1Cl (stereo not drawn)	-3	0.73	4.4	-7.9	-0.7	·	-2.6
CCOC(=O)C1CCCN(C(=O)c2cc3cc4ccc(OC)cc4nc3o2)C1 (stereo not drawn)	-1	0.66	i	-3.1	-0.3	·	2.5
COc1ccc(C2=NNC(=Nc3cc(S(=O)(=O)N(C)C)ccc3C)SC2)c(OC)c1	4	0.69	3.1	1.5	-0.1	0%	1.4
COC(=O)c1cc(OC)c(OC)cc1NC(=O)Nc1ccccc1OC	2	0.77	-21	2.9	-0.5	17%	-3.0
COc1ccc(/C=N/NC(=O)CCSc2nc3ccccc3s2)cc1	-7	·	·	-0.8	0.4	·	7.3
CCOC(=O)c1oc2ccccc2c1COC(=O)CNC(=O)c1ccco1	5	0.67	0.3	3.5	0.1	-11%	2.4
Cc1cc(C)cc(N(CCC(=O)O)S(=O)(=O)c2ccc(Cl)cc2)c1	-1	0.72	5.3	-1.5	-0.1	23%	-2.2
COc1ccccc1/C=N/NC(=O)c1ccc(-c2ccccc2)cc1	-2	·	·	0.6	-0.3	·	0.3
O=CN1CCCN(C(=O)CC2C(=O)NCCN2Cc2cccc(Oc3ccccc3)c2)CC1 (stereo not drawn)	-8	0.68	3.3	-0.7	-0.1	·	-2.2
O=C(Nc1cccn(Cc2ccccc2Cl)c1=O)NC1CCCCC1	-2	0.68	1.3	3.2	0.6	-7%	-2.0
O=C(COC(=O)CCSc1ccccc1)NCc1ccccc1	-14	0.67	2.9	1.4	-0.6	4%	-3.2
Cn1c(CSCc2ccc(Cl)cc2Cl)n[nH]c1=S	0	0.68	0.0	-1.2	0.6	·	-8.0
Cc1ccc(NS(=O)(=O)c2cccc(C(=O)NN3CCOCC3)c2)cc1	·	0.66	-1.4	·	0.3	17%	-22
CCOc1ccc(N2C(=O)CC(Sc3nnnn3-c3ccccc3)C2=O)cc1 (stereo not drawn)	16	0.69	0.8	0.7	·	·	·
Cc1ccc(S(=O)(=O)/N=C(\c2ccc(Cl)cc2)N2CCOCC2)cc1	5	·	·	2.3	0.2	-1%	2.7
CC(=O)c1cccc(NC(=O)N2CCCC(C(=O)c3cc(F)ccc3F)C2)c1 (stereo not drawn)	-4	0.65	-0.5	0.5	0.3	·	9.2
CCN1C/C(=N\S(=O)(=O)/N=C2\CN(CC)C(=O)N2CC)N(CC)C1=O	-3	·	·	-3.9	-0.8	·	-0.2
COC(=O)c1sc2ccccc2c1-n1cccc1C(=O)C(=O)Nc1ccc(F)cc1	0	0.76	3.7	2.4	0.2	7%	4.8
O=C(c1cc(F)c(F)cc1Cl)N1CCCc2ccccc21	3	0.72	1.5	1.6	0.1	1%	-6.0
CC(=O)c1c(C)[nH]c(C(=O)Nc2ccc(S(=O)(=O)N(C)C)cc2)c1C	-6	0.62	1.8	1.9	0.4	·	-2.2
Cc1ccc[n+](-c2nc3ccccc3nc2[N-]S(=O)(=O)c2ccccc2)c1	-6	0.7	3.4	-0.5	-0.7	9%	1.0
COC(=O)c1ccc(OC)c(CSc2nnc(-c3ccc(C(C)(C)C)cc3)o2)c1	·	0.76	1.3	·	0.8	1%	0.8
CC1CCN(c2nc(NCc3ccco3)nc(N)c2[N+](=O)[O-])CC1	-6	0.62	5.0	-6.7	-0.3	8%	-8.1
O=C(Nc1ccn([C@H]2CC[C@@H](CO)O2)c(=O)n1)c1ccccc1	-4	0.69	3.0	-2.5	-0.4	-2%	-4.4
CC(C)C(NC(=O)c1ccccc1F)C(=O)NCCCn1ccnc1 (stereo not drawn)	8	0.71	3.0	-1.9	0.9	·	4.4
O=C(Nc1ccc(Cl)c([N+](=O)[O-])c1)C(NCCCO)c1ccccc1 (stereo not drawn)	-3	0.67	0.4	-2.0	-0.5	-12%	4.5
CC(=O)C1=C(O)C(=O)N(c2nccs2)C1c1ccc(F)cc1 (stereo not drawn)	0	0.69	-15	6.2	-0.6	-13%	-1.3
c1cncc(-c2nnc3sc(C4CCCCC4)nn23)c1	-14	0.71	1.5	-0.4	-0.1	2%	-1.7
COCCCn1c(C(=O)N2CC(C)OC(C)C2)cc2c(=O)n3cccc(C)c3nc21 (stereo not drawn)	-7	0.66	-388	3.4	-0.5	-1%	1.7
CC(C)CNS(=O)(=O)c1ccc(C(=O)Nc2ccc3c(c2)OCCO3)cc1	11	0.69	-4.4	0.2	-0.2	?	3.5
COc1ccc(NC(=O)CCNS(=O)(=O)c2cccc3nonc23)c(OC)c1	7	0.67	0.4	5.7	0.1	-1%	-6.3
Cc1cccc(CSCCNC(=O)Nc2ccccc2)c1	-4	0.65	5.1	-3.6	0.1	·	1.5
COCCNC(=O)c1cc2c(=O)n3cccc(C)c3nc2n(Cc2ccncc2)c1=N	-4	0.69	i	-4.7	-0.2	28%	-2.2
COc1ccc(CN(Cc2cc3cccc(C)c3n3nnnc23)C(=O)N2CCOCC2)cc1	-5	0.63	1.6	1.6	0.2	-3%	3.0
Cc1ccccc1OCC(=O)NCCCNC(=O)c1ccccn1	-1	0.67	1.7	-3.6	0.0	·	0.8
O=C(Nc1ccncc1)Nc1ccc(Br)cc1Cl	-4	0.7	-0.1	-3.5	0.1	·	-1.1
COc1ccc(C(=O)N2CCN(C(=O)c3cc(OC)c(OC)c(OC)c3)CC2)cc1	-6	0.71	2.1	0.0	1.1	-10%&2%	1.4
Cn1cccc1CC(=O)N/N=C/C=C/c1ccco1	-3	·	·	-23	-0.4	?	8.1
CN(C)c1nc(-c2ccc([N+](=O)[O-])cc2)cs1	-3	0.65	3.6	4.1	-3.8	-12%	3.1
COc1ccc2c(c1)C(=O)N(c1ccccc1C)C(=O)C2(C)C	-7	0.68	-60	1.4	-1.1	·	-1.0
CC1(C)CC(=O)C(CO)=C(c2cccc3ccccc23)C1=O	19	0.63	6.7	0.1	-0.9	·	0.5
CCc1cc(CNC(=O)c2ccc(OC3CCN(CCc4ccccc4)CC3)cc2)on1	-7	0.69	1.1	3.6	0.4	·	2.6

Exported field by field: 2 of the compounds above.
canonical_smiles: Cc1cccc(CSCCNC(=O)Nc2ccccc2)c1
- B2AR ag: -4
- E coli growth: 0.65
- UCH37 inh: 5.1
- HNF4A DNA FP: -3.6
- Bfl-1 A1 inh: 0.1
- Vif A3G: ·
- LANA-H2B inh: 1.5

canonical_smiles: O=C(Nc1ccncc1)Nc1ccc(Br)cc1Cl
- B2AR ag: -4
- E coli growth: 0.7
- UCH37 inh: -0.1
- HNF4A DNA FP: -3.5
- Bfl-1 A1 inh: 0.1
- Vif A3G: ·
- LANA-H2B inh: -1.1

Continued.
SMILES	B2AR ag	E coli growth	UCH37 inh	HNF4A DNA FP	Bfl-1 A1 inh	Vif A3G	LANA-H2B inh
COC(=O)c1sccc1NC(=O)CC1C(=O)NCCN1C(=O)Nc1ccc(OCc2ccccc2)cc1 (stereo not drawn)	2	0.62	4.5	3.0	0.4	-4%	-0.2
COc1ccc(C2C(C(=O)c3cccs3)=C(O)C(=O)N2c2nncs2)cc1 (stereo not drawn)	5	0.72	11	-108	-0.2	-2%	30*
Cc1cccc(C(=O)c2cccc(C)c2)c1	6	0.63	-1.9	-3.6	-0.2	·	-2.3
COc1ccc(CNC(=O)CCCN2C(=O)c3ccccc3C2=O)cc1	-3	0.64	0.3	2.1	-0.3	2%	6.3
COc1cc(CCC(=O)OCC(=O)N(CC(C)C)C2CCS(=O)(=O)C2)cc(OC)c1OC (stereo not drawn)	7	0.69	1.2	-3.5	·	1%	·
Cc1ccc(-c2csc(NC(=O)c3cccc([N+](=O)[O-])c3)n2)cc1	21	0.71	0.7	2.5	1.0	-5%	3.0
CCOc1cccc(-c2csc(C3COc4ccccc4O3)n2)c1 (stereo not drawn)	11	0.67	-1.6	6.3	-0.3	20%	i

Marked active in LANA-H2B inh (from the list above):
molecule | B2AR ag | UCH37 inh | Bfl-1 A1 inh | Vif A3G | LANA-H2B inh
COc1ccc(C2C(C(=O)c3cccs3)=C(O)C(=O)N2c2nncs2)cc1 (stereo not drawn) | 5 | 11 | -0.2 | -2% | 30*

Taken from above.
Value for Cc1ccc(S(=O)(=O)/N=C(\c2ccc(Cl)cc2)N2CCOCC2)cc1 under Bfl-1 A1 inh: 0.2
Value for COc1ccc(CN(Cc2cc3cccc(C)c3n3nnnc23)C(=O)N2CCOCC2)cc1 under UCH37 inh: 1.6
Value for COC(=O)c1ccc(OC)c(CSc2nnc(-c3ccc(C(C)(C)C)cc3)o2)c1 under UCH37 inh: 1.3
Value for CC1CCN(CCn2c(=S)[nH]c3ccccc3c2=O)CC1 under HNF4A DNA FP: 5.5
Value for CC1CCN(c2nc(NCc3ccco3)nc(N)c2[N+](=O)[O-])CC1 under E coli growth: 0.62
